Bioassay records (PubChem)
ClpP mod = qHTS Assay for Activators of ClpP; ATP-dependent Clp protease proteolytic subunit (Bacillus subtilis (strain 168)), P80244; purified B. subtilis ClpP, FRET peptide cleavage, 20 min; Potency, µM (top dose mostly 57.5 µM), without a hit: at the top dose activity change, negative = active; 1.9% of 340,000 active; AID 651965, 2013; active = well fitted falling curve with a large enough effect; inconclusive = small, poorly fitted or top-dose-only effect; inactive = no such curve, though single readings can be large or run the other way; note: potency is the fitted concentration of half-maximal effect; the source files actives as falling curves though it sought activators and does not explain the sign; nearly all actives have a fitted effect of over 65% in size; many hits overshoot -100%
Target sequence (P80244 whole entry, looked up): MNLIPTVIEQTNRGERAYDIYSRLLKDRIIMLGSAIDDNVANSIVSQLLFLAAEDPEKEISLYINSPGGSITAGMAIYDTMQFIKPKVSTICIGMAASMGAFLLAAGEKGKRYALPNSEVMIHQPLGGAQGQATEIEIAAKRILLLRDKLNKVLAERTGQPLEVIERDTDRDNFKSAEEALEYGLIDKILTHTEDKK
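Purified B. subtilis ClpP, 10 microg/mL final in Tris/HCl pH8 with KCl, BSA, glycerol and Tween-20, cleaved an Abz/nitrotyrosine-quenched decapeptide. Fluorescence (ex 320, em 430) was read at 0 and 20 min at room temperature. Delta was normalized to 5.8 microM ADEP and DMSO/no-enzyme controls.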
TRPML1 ag = qHTS for Agonists of the Human Mucolipin Transient Receptor Potential 1 (TRPML1); Mucolipin-1 (Homo sapiens), Q9GZU1; TRPML1-expressing cells, Ca2+ dye fluorescence, FDSS; host cell line not named in the record; reference of the full effect not given here; activation, % (concentration not given with the values); 0.12% of 410,000 active; in the data active = activation above about 50%; inconclusive = about 30% to 50%; inactive = below about 30%; note: 0% is about no effect; the text of the record puts the active cut at 80%
Target sequence (Q9GZU1 whole entry, looked up): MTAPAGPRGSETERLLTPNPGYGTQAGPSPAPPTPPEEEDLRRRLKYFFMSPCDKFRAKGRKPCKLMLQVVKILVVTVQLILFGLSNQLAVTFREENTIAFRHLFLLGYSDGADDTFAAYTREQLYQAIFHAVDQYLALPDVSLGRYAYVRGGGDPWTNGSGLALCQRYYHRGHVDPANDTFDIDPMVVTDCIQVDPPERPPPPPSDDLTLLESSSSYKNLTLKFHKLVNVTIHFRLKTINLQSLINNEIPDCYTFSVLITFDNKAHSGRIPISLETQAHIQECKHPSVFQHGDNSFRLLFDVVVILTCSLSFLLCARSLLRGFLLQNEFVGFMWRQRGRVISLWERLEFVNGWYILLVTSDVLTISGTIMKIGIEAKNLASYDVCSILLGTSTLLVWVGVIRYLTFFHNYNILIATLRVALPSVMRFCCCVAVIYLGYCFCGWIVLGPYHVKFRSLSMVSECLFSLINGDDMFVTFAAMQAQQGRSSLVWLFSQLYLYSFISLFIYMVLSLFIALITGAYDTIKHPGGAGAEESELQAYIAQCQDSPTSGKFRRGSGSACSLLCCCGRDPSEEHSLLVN
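TRPML1-DL cells, Tet-induced overnight (~16 h, 37 degrees C), loaded 45-90 min at room temperature with Ca8 no-wash calcium dye plus quencher. FDSS fluorescence: 10 s baseline, compound pin-transfer, 110 s agonist read, then EC80 54-4 (4uM final) and 110 s antagonist read.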
Sfp PPTase inh = qHTS Assay for Inhibitors of Bacillus subtilis Sfp phosphopantetheinyl transferase (PPTase); 3.5% of 310,000 active; Potency, µM, without a hit: max response, negative = inhibition, most hits filed as inhibitors; Biochemical Sfp PPTase activity, qHTS; active = well fitted inhibition curve with a large enough effect; inconclusive = small, poorly fitted or top-dose-only effect, or another doubt; inactive = no such curve, though single readings can be large or run the other way;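 note: the enzyme is Sfp with the accession as filed and its product quenches rhodamine fluorescence; potency is the fitted concentration of half-maximal effect; 0% = enzyme reaction without inhibitor and -100% = no enzyme wells; top concentration of the series not given in the record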
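Sfp 15 nM + cpd, 15 min RT; start w/ rhodamine-CoA 5 uM, BHQ-2-YbbR 12.5 uM (final); 50 mM Hepes pH 7.6, 10 mM MgCl2, 0.01% NP-40, 0.01% BSA; read 525/598 nm at 0 and 30 min.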
TRPML1 blocker = qHTS for Inhibitors of the Human Mucolipin Transient Receptor Potential 1 (TRPML1); AID 624415, 2012; activity change, negative = inhibition, % (concentration not given with the values); Mucolipin-1 (Homo sapiens), Q9GZU1; TRPML1-inducible cells, Ca2+ dye fluorescence, FDSS; active compounds read low; inhibition of EC80 agonist-evoked calcium signal; 0.02% of 390,000 active; in the data active means activity change below about -50%; inconclusive means about -30% to -50%; inactive means above about -30%;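 note: stimulus is agonist 54-4 at its EC80 concentration; % is set by controls: 0 for no effect and ±100 for the full control effect; the text of the record puts the active cut at -80%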
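Tet-induced TRPML1-DL cells loaded with Ca8 no-wash calcium dye were read kinetically on FDSS. Compound addition was followed by EC80 agonist 54-4 (4 uM final); inhibition was read over 110 s.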
Menin MLL FP FL = qHTS Assay for Inhibitors Targeting the Menin-MLL Interaction in MLL Related Leukemias: Competition With Fluorescein Labeled MLL-derived Peptide; Fluorescence polarization, fluorescein-MLL peptide displacement from menin; FP activity change, % at 61.4 µM; 290,000 tested, under 10 active; AID 1766, 2009; inconclusive = falling polarisation curve, or a change in total fluorescence; inactive = total fluorescence flat and polarisation flat or rising; no compound was filed as active; the % refers to the polarisation; negative = inhibition;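 note: % of control where 0% means no effect; inhibitors lower the polarisation; unlabelled MLL peptide was the positive control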
TRPV1 potentiator = HTS Assay for Compounds that Act as Potentiators of the Vanilloid Receptor 1 | Transient receptor potential cation channel subfamily V member 1 (Homo sapiens), Q8NER1 | TRPV1-expressing cells, Fluo-8 calcium influx, capsaicin EC20 potentiation; host cell line not named in the record; control for the full effect not named in the record | potentiation, % at 8.33 µM | 0.02% of 320,000 active | AID 540277, 2011; active means potentiation above 80%; inconclusive means 30% to 80%; inactive means below 30%; note: 0% is about no effect
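Fluo-8 calcium influx in TRPV1-expressing cells, kinetic read (ex 480/em 520 nm). Compound added and read 3 min for agonist activity, followed by capsaicin at EC20 final and 2 min further read for enhancement.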
PINK1 modulator = A Quantitative High throughput Screen to Identify Chemical Modulators of PINK1 Expression. AID 624263, 2012. PINK1 immunofluorescence, high-content cytometry, 24 h. Potency, µM (doses to about 76.6 µM), without a hit: at the highest dose activation (PINK1 increase), usual class: activators. 0.2% of 410,000 active; active = well fitted activation curve with a large enough effect; inconclusive = small, poorly fitted or top-dose-only effect; inactive = flat fitted curve, though single readings scatter; cell line not stated here;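 note: potency is the fitted concentration of half-maximal effect; % of control where 0% means no effect; nearly all actives have a fitted effect of over 65% in size; a mitochondrial uncoupler was the plate control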
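Readout is PINK1 immunofluorescence, quantified alongside mitochondrial, cell and nuclear markers by laser-scanning microplate cytometry. Cells from a stable line were exposed to compound titrations (5 concentrations) for 24 hours, with CCCP controls.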
Starred values were filed as active, the others as inactive; ? = inconclusive; / = not tested or not shown; [ ] = another dose, or the depositor's remark.

SMILES	ClpP mod	TRPML1 ag	Sfp PPTase inh	TRPML1 blocker	Menin MLL FP FL	TRPV1 potentiator	PINK1 modulator
CC(C)NCC(O)COc1c(F)cc(Br)cc1F (stereo not drawn)	-0.3%	-0.9	15%	16	1.5	-2	4.6%
Cc1c(Cl)cccc1NC(=O)CNC(=O)c1ccc2c(c1)OCCO2	-8.3%	-0.5	/	-9	/	/	-1.2%
c1ccc2c(c1)CC1(CCCCC1)n1nnnc1-2	0.3%	1.4	9%	-6	0.5	-13	1.7%[38.3 µM]
O=C(NC12CC3CC(CC(C3)C1)C2)C1=COCCO1	0.3%	-0.9	17%	14	3.6	-21	0.3%
O=C(c1cc(F)c(F)cc1Cl)N1CCN(c2ccc([N+](=O)[O-])c3ncccc23)CC1	-0.7%	-0.2	-7%	-10	-2.6	-1	-0.8%
CCOC(=O)c1ccc(NC(=O)CC2C(=O)N(c3ccc(F)cc3)C(=O)N2Cc2cccnc2)cc1 (stereo not drawn)	0.1%	0.4	/	11	/	/	1.2%
CCCCOc1ccc(N(CC(=O)NC(C)C)C(=O)CCC(=O)Nc2ccccn2)cc1	/	1.0	30%	-4	-0.7	-9	-1.3%
CCc1nnc(NC(=O)CCC(=O)N2CCN(c3ccccn3)CC2)s1	18µM*	-0.4	3%	5	7.2	-10	2.2%
O=C(Cc1ccc(Cl)cc1)NCC(=O)N1CCN(Cc2ccccc2)CC1	0.5%	-0.4	13%	-4	/	16	-0.5%
O=C(NN=C1CCCCC1)c1cc(-c2ccccc2)n[nH]1	1.1%	-0.4	6%	-7	0.3	26	-0.8%
CCOC(=O)c1c(NS(=O)(=O)c2cccc(OC)c2)sc2c1CCC2	-0.3%	2.1	2.8µM*	3	?	30	-1.8%[38.3 µM]
Cc1ccc(S(=O)(=O)N2CCN(C(=O)CC(C)(C)C)CC2)cc1	/	0.1	17%	16	-2.4	3	-0.8%
COC(=O)C1=C(c2ccc(OC)cc2)OC(=O)C1(C)C	-5.8%	1.2	15%	32	2.8	-7	-0.9%
CCc1nc2ccc(C(=O)Nc3cccc(OCC(=O)N(C)C)c3)cn2c1N(C=O)Cc1ccc(OC)cc1	-0.4%	-0.8	/	/	/	/	2.1%
COc1ccccc1-c1c(C(F)(F)F)oc2c(CN(C)C)c(O)ccc2c1=O	-1.4%	-0.8	8%	0	0.1	-9	-0.7%
CCN(CC)C(=O)[C@H]1CC(CC(=O)NCCCN(C)C)C(=O)N2CCc3c([nH]c4ccc(OC)cc34)[C@]12C (stereo partly drawn)	-8.8%	-0.1	/	1	/	/	0.6%
CCC1Sc2ccc(S(=O)(=O)N3CCN(c4ccccc4)CC3)cc2NC1=O (stereo not drawn)	-2.6%	1.0	14%	11	/	?	2.0%
Cc1nc(C)c(C(=O)NCCC(c2ccccc2)c2ccccc2)o1	/	1.2	-6%	-3	0.2	-17	4.7%
Cn1cc(S(=O)(=O)Nc2ccc(F)cc2F)c(=O)n(C)c1=O	-2.4%	-0.3	25%	1	1.2	6	0.3%
Cc1cc(Cl)c(S(=O)(=O)Nc2ccc(Cl)cn2)cc1OCC(N)=O	1.9%	0.3	28%	-4	0.3	-4	1.2%

A different layout for two compounds above.
The line under a structure holds: ClpP mod, TRPML1 ag, Sfp PPTase inh, TRPML1 blocker, Menin MLL FP FL, TRPV1 potentiator, PINK1 modulator
- CC(C)NCC(O)COc1c(F)cc(Br)cc1F (stereo not drawn)
 : -0.3%, -0.9, 15%, 16, 1.5, -2, 4.6%
- Cc1c(Cl)cccc1NC(=O)CNC(=O)c1ccc2c(c1)OCCO2
 : -8.3%, -0.5, /, -9, /, /, -1.2%

The results go on.
SMILES	ClpP mod	TRPML1 ag	Sfp PPTase inh	TRPML1 blocker	Menin MLL FP FL	TRPV1 potentiator	PINK1 modulator
COc1ccc(OCCN2CCN(C(=O)c3ccc(OC)cc3)CC2)cc1	/	-0.5	14%	8	-3.1	-6	2.5%
Cc1cc(NC(=O)C(C)Sc2nnc(NCc3ccco3)s2)no1 (stereo not drawn)	0.9%	-0.5	/	6	/	-1	-1.4%
CCOC(=O)N1CCC(NC(=O)c2cc(C)c3c(C)nn(-c4ccccc4)c3n2)CC1	1.4%	1.4	24%	-7	3.0	5	13%[38.3 µM]
Cc1ccc(CSCC(=O)N2CCN(c3cc(Cl)ccc3C)CC2)cc1	0.6%	0.7	/	46	/	/	0.4%
CC(C)c1ccc(NC(=O)c2ccc3oc(=O)c(S(=O)(=O)c4ccc(F)cc4)cc3c2)cc1	-8.7%	0.4	/	5	/	/	2.5%
CC(C)Cc1nnc(NC(=O)CSc2ccccn2)s1	-1.0%	1.4	45µM*	-18	3.5	19	1.1%
CN(C)S(=O)(=O)c1ccc(NC(=O)C2CC3C=CC2C3)cc1 (stereo not drawn)	1.0%	-0.4	-7%	4	1.0	-2	15%
Cc1cc(C)cc(N(CC(=O)NCc2ccc(F)cc2)C(=O)c2snc(C(N)=O)c2N)c1	/	-0.4	7%	-2	-5.5	16	11%
Cc1ccc(N(CC(=O)NC2CCCCC2)S(=O)(=O)c2c(C)nn(C)c2C)cc1	-0.4%	-0.8	1%	6	-4.9	0	-1.9%
Cn1c(-c2ccc(F)cc2)cnc1NCc1ccccc1F	-3.5%	/	?	/	-1.2	9	1.2%
CCOC(=O)NC(=O)/C(N=Nc1cc(C)cc(C)c1)=C(\C)O	/	2.7	12%	0	-2.5	11	1.6%
CSCCC(NC(=O)COc1ccccc1)C(=O)NCC1COc2ccccc2O1 (stereo not drawn)	-2.5%	-0.5	-3%	-3	/	-2	2.2%
S=C(Nc1ccccc1Cl)Nc1ccc(Cl)cc1Cl	-14%	-0.3	8%	10	0.7	3	1.3%
Cn1cc(S(=O)(=O)Nc2ccc3c(c2)OCCO3)cn1	/	-0.4	1%	26	-0.5	-6	2.1%
COc1ccc(C2C(C#N)=C(N)N(c3cccnc3)C3=C2C(=O)CC(C)(C)C3)cc1OC (stereo not drawn)	1.6%	1.1	-7%	-24	-0.1	7	7.1%
CC1=C(C(=O)NC(C)c2ccc3c(c2)OCCO3)C2(CCC(C)CC2)OC1=O (stereo not drawn)	1.3%	0.1	6%	37	4.1	10	2.9%
CCN(CC)C(C)C(=O)Nc1c2c(cc3c1CCC3)CCC2 (stereo not drawn)	1.2%	1.5	8%	24	7.1	-2	?
FC(F)(F)c1cc(CCN2C(=S)NC[C@@H]2c2ccccc2)cc(C(F)(F)F)c1	0.5%	1.8	35%[activator]	-2	0.6	-19	13%
CC(C)CN(CC(C)C)c1ccc(/C=N/n2cnnc2)cc1[N+](=O)[O-]	?	1.2	-16%	9	0.1	-19	-6.3%
O=S(=O)(Nc1cccc2c1CCCC2)c1cccc(C(F)(F)F)c1	1.6%	2.7	8%	10	2.2	4	12%
COc1cccc(-c2nc(C(N)=O)c3c(n2)n(-c2ccc4c(c2)OCO4)c(=O)n3C)c1OC	0.5%	2.5	/	-18	/	/	-0.2%
O=C1C2C3CCCC3=C3CCCC3C2C(=O)N1c1ccccc1 (stereo not drawn)	0.0%	0.5	-22%	5	0.5	-4	1.9%
CCCOc1ccc(C(=O)Nc2ccc(-c3cc4ccccc4oc3=O)c(C)c2)cc1	4.1%	0.3	/	28	/	/	0.1%
CN(C)c1ccc(C(C(=O)NC2CCCC2)N(C(=O)c2csnn2)C2CC2)cc1 (stereo not drawn)	-21%	-1.6	9%	13	/	5	2.5%
Cc1ccnc(N2CCN(c3cc(C)c(C#N)c4nc5ccccc5n34)CC2)c1	-2.1%	-0.4	/	9	/	/	3.6%
CCN(C(=O)c1cc2c(s1)-c1ccccc1OC2)c1cc(Cl)ccc1OC	4.4%	0.3	/	14	/	/	3.5%
COc1ccc(CN2CCNC(=O)C2CC(=O)N(C)Cc2nonc2C)c(F)c1 (stereo not drawn)	-1.3%	0.3	15%	16	/	?	0.0%
COc1ccc(/C=C/C(=O)Oc2ccc(/C=N/NC(=O)c3ccncc3)cc2)cc1	/	0.6	11%	6	-1.7	5	-0.7%
Cc1ccc2nc(SCC(=O)Nc3cccc(Cl)c3)nc(=O)n2c1	-10%	0.0	/	2	/	-2	1.0%
O=C(c1cc(-c2ccncc2)nc2ccccc12)N1CCN(c2ccc(N3CCOCC3)nn2)CC1	1.1%	-0.7	5%	-5	3.7	2	5.8%[38.3 µM]
CCCCCCc1cc2cc(C(=O)Nc3ccccc3)c(=O)oc2cc1O	-1.0%	-0.4	-14%	17	11	-3	?
COc1cccc(NC(=O)CN(c2cccc(C(F)(F)F)c2)S(C)(=O)=O)c1	0.8%	0.4	11%	1	3.6	4	0.2%
CN(c1ccc(OCC(=O)Nc2nc3ccccc3s2)cc1)S(=O)(=O)c1ccccc1	-2.7%	1.6	16%	28	2.9	-12	2.8%
Cc1ccc2c(c1)NC(=O)C(CC(=O)O)O2 (stereo not drawn)	0.8%	0.1	3%	-17	4.9	-2	0.9%
Cc1c(C)n(Cc2ccccc2)c2ccc(C(=O)NCCc3ccccc3Cl)cc12	16µM*	1.9	/	52	/	/	-1.3%
O=C(Nc1cccc(C(=O)OCc2cc(=O)n3nc(C4CC4)sc3n2)c1)c1cccc(F)c1	-9.3%	-0.9	/	-3	/	/	-0.9%

Entries of single compounds from above:
CCN(C(=O)c1cc2c(s1)-c1ccccc1OC2)c1cc(Cl)ccc1OC reads ClpP mod: 4.4%; TRPML1 ag: 0.3; Sfp PPTase inh: /; TRPML1 blocker: 14; Menin MLL FP FL: /; TRPV1 potentiator: /; PINK1 modulator: 3.5%
COc1ccc(/C=C/C(=O)Oc2ccc(/C=N/NC(=O)c3ccncc3)cc2)cc1 reads ClpP mod: /; TRPML1 ag: 0.6; Sfp PPTase inh: 11%; TRPML1 blocker: 6; Menin MLL FP FL: -1.7; TRPV1 potentiator: 5; PINK1 modulator: -0.7%

An unsorted share of the library. Share with any hit: about 4.4%.
